Bfl-1 A1 inh = inhibitors of the anti-apoptotic protein A1, read as caspase activation. hit rate 0.066% among 330,000. caspase activation, % (no concentration beside the values). MEF A1-2A-BIM cells, Caspase-Glo 3/7 luminescence, 3 h; percent of clofoctol response, vehicle zero;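 active = over half of replicate activation scores above 10%, or exactly half above 10 with the replicate mean above 10; inconclusive = replicate mean below 10 yet half the replicates above 10; inactive = over half of replicates below 10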;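 also: wells of about 30 µL received 50 nL stock; many hits fall short of the cut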
Beta apoptosis = blocks beta cell apoptosis; hit rate 0.8% among 300,000; INS-1E cytokine-induced death, ATP luminescence, 48 h; percent of positive-control rescue, neutral wells zero; protection from apoptosis, % (no concentration beside the values);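 active = all replicates at 75% or more, or half of them and the mean; inconclusive = half reach 75% but not the mean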;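 also: 0% = cytokine-treated negative control wells and 100% = positive control rescue; higher means more ATP so stronger rescue from cytokine killing; wells of about 40 µL received 100 nL stock; the first replicate is given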
ALR inh = human ALR oxidase inhibition via reduced H2O2 | hit rate 3.8% among 290,000 | P55789 | AID 485317 | purified ALR, DTT oxidation, H2O2 HRP-luminol luminescence | inhibition, % (no concentration beside the values);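 active = mean and each replicate at 75% or more; inconclusive = only one of the two met; inactive = neither met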;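 also: stock transfer was 7.5 nL into about 7.5 µL; 0% = neutral wells and 100% = wells with inactivated enzyme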
Target sequence (P55789 whole entry, looked up): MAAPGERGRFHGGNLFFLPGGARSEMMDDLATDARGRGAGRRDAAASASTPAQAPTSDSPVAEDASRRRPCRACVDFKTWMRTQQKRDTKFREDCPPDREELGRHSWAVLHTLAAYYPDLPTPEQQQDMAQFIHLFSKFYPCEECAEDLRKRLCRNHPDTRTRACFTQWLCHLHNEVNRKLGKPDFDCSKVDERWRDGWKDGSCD
rRNA inh HTS = inhibitors of bacterial rRNA selective over humanized ribosomes. E. coli WT GFP vs humanized-ribosome RFP mutants, fluorescence, 24 h; active compounds read low; DMSO median 0, no signal -100. AID 720706. GFP signal change (wild-type ribosome), % (test concentration not listed). hit rate 1.6% among 350,000;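 active = significant combined selectivity score with lowered wild-type GFP, culture density cut under 30%, mutant RFP and density less affected; inactive = any of these conditions unmet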; also: one replicate is shown; some compounds called inactive have numbers as strong as hits
Beta2AR agonist = activates human beta-2 adrenergic receptor causing internalization; hit rate 0.43% among 340,000; response, % (concentration not given with the values); Am2.2-beta2AR cells, FAP receptor internalization, flow cytometry; reference of the scale not given here;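 active = response above a set limit, near 3 SD of response in nonfluorescent compounds, cut at about 42% in these data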;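 also: stock transfer was 100 nL into about 11 µL; a reference agonist was the positive control; negative values mostly stem from fluorescent compounds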
Target sequence (P07550 whole entry, looked up): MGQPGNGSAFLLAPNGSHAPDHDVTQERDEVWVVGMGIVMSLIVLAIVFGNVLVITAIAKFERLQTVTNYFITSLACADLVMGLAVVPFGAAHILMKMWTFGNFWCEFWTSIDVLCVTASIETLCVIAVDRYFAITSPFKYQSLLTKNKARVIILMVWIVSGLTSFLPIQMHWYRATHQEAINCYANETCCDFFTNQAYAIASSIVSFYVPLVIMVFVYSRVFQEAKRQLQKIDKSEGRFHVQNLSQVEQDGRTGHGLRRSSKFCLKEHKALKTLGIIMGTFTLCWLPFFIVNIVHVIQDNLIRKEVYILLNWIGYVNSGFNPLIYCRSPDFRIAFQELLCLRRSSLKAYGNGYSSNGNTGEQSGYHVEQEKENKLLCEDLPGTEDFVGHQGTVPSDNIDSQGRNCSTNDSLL
T cruzi inh = T. cruzi replication inhibition; T. cruzi beta-gal in NIH3T3, luminescence, 90 h; inhibition, % (concentration not given with the values); hit rate 1.4% among 300,000; AID 1885;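 active = mean inhibition across valid replicates above about 55%, limit read from the data; inconclusive = mean below that limit but half or more replicates reach it; inactive = mean below it, under half of replicates reach it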;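 also: signal also drops with host cell toxicity which is not excluded here; 0% = plate median of DMSO wells and 100% = zero luminescence signal; higher percent means less beta-gal luminescence so fewer parasites; stock transfer was 50 nL into about 50 µL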
Calb FLC = C. albicans growth modulation with fluconazole | C. albicans CaCi-2 (fluconazole-resistant clinical isolate) + fluconazole, Alamar Blue growth, 48 h | growth inhibition, % (concentration not given with the values) | hit rate 0.57% among 300,000;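 active = most replicates above 75%; inconclusive = exactly half above 75%; inactive = most below 75%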;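 also: all wells also contain fluconazole at 8 µg/ml as a sub-toxic cotreatment; 0% = median of DMSO wells and 100% = median of geldanamycin control wells; wells of about 8 µL received 7.5 nL stock; the first replicate is given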
LANA-H2A inh = blocks KSHV LANA binding to histone H2A/H2B | Q9QR71 | AID 2629 | hit rate 0.6% among 320,000 | cell-free LANA-H2A/H2B peptide, fluorescence polarization | inhibition, % (test concentration not listed); in the data active = inhibition mostly above about 10%, no sharp cut-off; inactive = mostly below about 6.7%;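 also: stock transfer was 7.5 nL into about 10 µL; 0% = median of vehicle wells and 100% = median of positive control wells; one replicate is shown; the record names a cut of 25% in any replicate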
rRNA inh HTS OD600 = recorded beside rRNA inh HTS, whose call it bears; OD600 change, %; measured here: OD600 growth;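 optical density of the mix in the first replicate; 0 = DMSO median and -100 = no signal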
rRNA inh HTS RFP = second read-out of rRNA inh HTS, no call of its own (marks repeat the call); RFP signal change, %; measured here: RFP humanized mutant strains;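 first replicate; 0 = DMSO median and -100 = no signal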
* = called active by the depositor; ? = inconclusive; / = no result given. A portion of the library, so the mix of outcomes need not match the whole.

SMILES | Bfl-1 A1 inh | Beta apoptosis | ALR inh | rRNA inh HTS | rRNA inh HTS OD600 | rRNA inh HTS RFP | Beta2AR agonist | T cruzi inh | Calb FLC | LANA-H2A inh
NC(=O)NC(c1ccccc1)c1cccc2ccccc12 (configuration not stated) | -0.6 | 3 | 1 | -33* | -4.5* | -3.6* | 11 | -3 | 14 | -0.7
COc1cc2c(cc1OC)C(C1(O)CCCCC1)NCC2 (configuration not stated) | -0.5 | 1 | -4 | 13 | 14 | 0.0 | 3 | -2 | -10 | -0.2
S=C(NCc1ccccc1)N1CCc2ccccc2C1 | -0.7 | -2 | / | -20 | -10 | -1.8 | -15 | -11 | -4 | -1.2
C=CCn1c(SCC(N)=O)nnc1-c1cc(Br)ccc1O | -0.3 | -2 | 97* | -1 | -2 | -1.3 | 1 | -4 | -4 | 2.1
CCOCCCNC(=O)Cn1cnc2sc(C)c(S(=O)(=O)N3CCN(c4ncccn4)CC3)c2c1=O | -0.1 | -4 | -1 | 5 | 14 | 0.8 | -5 | -5 | -3 | -1.9
CCCN(CC(=O)Nc1ccccc1OC)C(=O)c1cccc(S(=O)(=O)Nc2ccc(OC)cc2)c1 | 0.0 | 1 | 1 | -14 | -18 | -1.1 | 5 | -14 | -7 | -1.2
Cc1ccc(S(=O)(=O)Nc2ccc3c(c2)n(C)c(=O)n3C)c(C)c1 | 0.6 | 11 | -3 | -6 | -16 | 0.3 | 3 | -9 | 13 | -0.7
O=C(O)CCCC(=O)N1CCN(c2ncccn2)CC1 | -0.8 | -3 | 0 | 25 | 6 | 1.4 | 8 | -11 | -21 | 3.0
CCn1c(SCC(=O)Nc2ccccc2)nnc1-c1cccs1 | 1.3 | 4 | -2 | -14 | -4 | -6.5 | -6 | -7 | 8 | -5.0
Cc1cc(C(=O)Nc2ccccc2Cl)c2ccccc2n1 | 0.6 | / | -5 | 0 | 5 | -1.6 | 0 | -14 | -9 | 0.0
COc1cc(NS(=O)(=O)c2ccc(N/C=C\C(=O)c3ccc(C)cc3)cc2)nc(OC)n1 | 0.1 | -3 | 59 | / | / | / | 1 | -9 | -33 | -1.2
CCN(CC(=O)N1CCOCC1)S(=O)(=O)c1cc(Cl)ccc1Cl | 0.1 | -2 | 2 | 18 | 16 | 6.3 | 4 | 4 | -7 | -6.5
CC1CCc2c(sc3ncn(CC(=O)N=Nc4c(O)[nH]c5ccccc45)c(=O)c23)C1 (configuration not stated) | 0.8 | 11 | -2 | 3 | 11 | -1.4 | -5 | 9 | -2 | -5.4
O=C(CSc1ccccc1C(=O)N1CCCCC1)NCC1CCCCC1 | -0.8 | 0 | 0 | 1 | 6 | 1.3 | -2 | 5 | -9 | -1.5
CCN(CC)C(=S)SCC(=O)Nc1nc(=O)c2ccccc2s1 | 0.7 | -1 | -13 | -12 | 4 | -0.6 | 3 | ? | -8 | -4.3
Clc1ccc2nc(-c3ccccc3)c(CN3CCOCC3)n2c1 | 0.2 | 0 | -3 | / | / | / | -5 | 24 | -8 | -3.7
O=C(COc1ccc(Cl)cc1Cl)N/N=C/c1ccc(OC2OC(CO)C(O)C(O)C2O)cc1 (configuration not stated) | -0.3 | 4 | -20 | 6 | 6 | 6.6 | -18 | -7 | -5 | 3.4
Nc1[nH]ncc1S(=O)(=O)c1ccccc1 | 0.5 | 0 | / | 10 | 5 | 1.0 | 0 | 0 | 1 | -0.7
O=C(c1ccc(S(=O)(=O)Nc2ccccc2)cc1)N1CCC1 | -0.3 | / | / | 12 | 9 | -4.3 | 1 | -9 | 2 | 8.0
CCOC(=O)NC(Nc1ccc(S(N)(=O)=O)cc1)(C(=O)OCC)C(F)(F)F (configuration not stated) | 0.6 | -1 | 20 | / | / | / | 9 | 6 | 2 | 0.8
O=Cc1coc2c(ccc3ccccc32)c1=O | 0.3 | -3 | 24 | / | / | / | / | -15 | 16 | -1.9
COc1ccc(OC)c(CCNC(=O)Cc2ccc(NC3=NC4CS(=O)(=O)CC4S3)cc2)c1 (configuration not stated) | / | -6 | -7 | 7 | 2 | -5.0 | 12 | -11 | -4 | 3.3
O=C(Nc1cccc(F)c1)C1CCCN(c2cnccn2)C1 (configuration not stated) | / | / | -12 | -1 | 8 | -2.5 | -4 | 30 | 2 | /
Clc1ccc(-c2nnc3n2CCCS3)cc1 | -0.2 | -3 | -5 | / | / | / | -2 | 0 | 1 | 0.3
OC[C@H]1OC(Nc2ccc(N=Nc3ccccc3)cc2)[C@@H](O)[C@@H](O)[C@@H]1O (some centres not stated) | -0.2 | / | -19 | -15 | -4 | -3.1 | -8 | 6 | 4 | 2.4

Reprinted from the part before: 4 entries, then new ones.
SMILES | Bfl-1 A1 inh | Beta apoptosis | ALR inh | rRNA inh HTS | rRNA inh HTS OD600 | rRNA inh HTS RFP | Beta2AR agonist | T cruzi inh | Calb FLC | LANA-H2A inh
COc1ccc(OC)c(CCNC(=O)Cc2ccc(NC3=NC4CS(=O)(=O)CC4S3)cc2)c1 (configuration not stated) | / | -6 | -7 | 7 | 2 | -5.0 | 12 | -11 | -4 | 3.3
O=C(Nc1cccc(F)c1)C1CCCN(c2cnccn2)C1 (configuration not stated) | / | / | -12 | -1 | 8 | -2.5 | -4 | 30 | 2 | /
Clc1ccc(-c2nnc3n2CCCS3)cc1 | -0.2 | -3 | -5 | / | / | / | -2 | 0 | 1 | 0.3
OC[C@H]1OC(Nc2ccc(N=Nc3ccccc3)cc2)[C@@H](O)[C@@H](O)[C@@H]1O (some centres not stated) | -0.2 | / | -19 | -15 | -4 | -3.1 | -8 | 6 | 4 | 2.4
Nc1nc(NCCO)nc(NCC2CCCO2)c1[N+](=O)[O-] (configuration not stated) | -0.2 | -5 | 0 | 13 | 7 | -5.4 | -13 | -33 | -1 | 3.5
NC(CSCc1cccc(Br)c1)C(=O)O (configuration not stated) | 0.4 | -8 | -15 | -7 | -10 | -1.8 | -2 | -23 | 2 | -0.3
N#CCc1cnc2ccccc2n1 | -0.8 | 3 | -54 | 18 | 4 | 28 | 1 | 10 | -7 | 5.5
Cc1cc(C)c(C#N)c(SCC(O)COc2ccc(Br)cc2)n1 (configuration not stated) | -0.5 | 5 | -3 | -28 | -53 | -1.6 | -2 | 21 | 5 | 5.8
O=[N+]([O-])c1cc(F)c(N2CCOCC2)cc1N1CCCCC1 | 0.3 | 0 | 3 | -51 | -58 | -22 | -1 | 8 | 15 | -3.6
O=C1CN2CCC1C/C2=C\c1ccnc2c(Cl)cccc12 (configuration not stated) | 1.6 | 4 | -6 | 0 | 10 | 9.8 | 10 | 0 | 3 | 1.1
CN(CCO)CCOCCOc1cccc2ccccc12 | -0.1 | -4 | / | 5 | 5 | 3.2 | -5 | 14 | 4 | 0.1
C(=C\c1ccco1)/c1nc2ccccc2[nH]1 | -0.3 | -1 | 98* | / | / | / | -4 | -2 | -1 | 2.9
O=C(Cn1cc([N+](=O)[O-])cn1)NCc1ccccc1 | -0.3 | 0 | -10 | 18 | 10 | -1.0 | 6 | -5 | -2 | -0.7
CCOC(=O)N1CCC(N(CCN(C)C)C(=S)Nc2cc(Cl)ccc2C)CC1 | 0.5 | -19 | 0 | 14 | 7 | -4.2 | -2 | -5 | -3 | -0.6
CCn1c(C)nc2cc(C(=O)N/N=C(\C)c3ccc(N4CCOCC4)cc3)ccc21 | 1.9 | -4 | 13 | 11 | 7 | 1.5 | 5 | -2 | -14 | -2.0
N/C(=N\OC(=O)c1ccco1)c1ccc(Cl)cc1 | -6.9 | 4 | 99* | 16 | 10 | 0.4 | -3 | -9 | -29 | -1.1
COc1ccc(OC2C(=O)N(Cc3ccc(F)cc3)C2c2ccc(OC)c(OC)c2)cc1 (configuration not stated) | 1.9 | / | -5 | -9 | -4 | 5.1 | 12 | 25 | 2 | 5.1
CSC1=NC(C(Cl)(Cl)Cl)N=C(c2ccc(C)cc2)N1 (configuration not stated) | 0.5 | 5 | 73 | -27 | -25 | -2.9 | 12 | -4 | -4 | -1.7
O=S(=O)(Nc1ccc2c(c1)oc1ccccc12)N1CCCC1 | 0.4 | -1 | 26 | / | / | / | 0 | -21 | 3 | 1.4
C/C(N)=C(/C#N)C(=O)COC(=O)c1cc(-c2ccc(C)cc2)nc2ccccc12 | 1.3 | 81* | -6 | / | / | / | 1 | 3 | 2 | -0.7
COc1cccc(C(=O)NCCCNC(=O)c2cccc(OC)c2)c1 | 1.5 | -6 | -6 | -7 | -5 | -0.3 | 1 | -6 | 1 | 1.6
CCc1cccc(C)c1NC(=O)COC(=O)Cn1c(C)csc1=O | 0.1 | / | 0 | 14 | 9 | -1.1 | -11 | -12 | -3 | 0.0
Cc1ccc(C)c(N(C)S(=O)(=O)c2ccc3[nH]cc(C(=O)NCCN4CCOCC4)c(=O)c3c2)c1 | 0.0 | -4 | -3 | / | / | / | 4 | 7 | 3 | 3.2
CC(Oc1ccc2c(-c3ccccc3)cc(=O)oc2c1)C(=O)NCc1ccccn1 (configuration not stated) | -0.9 | -1 | -3 | 3 | 0 | -6.1 | -6 | -7 | 2 | 1.2
COc1ccc(CC(=O)Nc2ccc(-c3nnc(-c4ccccc4)o3)cc2)cc1OC | / | / | / | 14 | 19 | -5.8 | 1 | 14 | 5 | /
Nc1ccccc1CNc1nc(NCCO)nc2c1ncn2CCN1CCOCC1 | 1.6 | -1 | 42 | 9 | 11 | -1.7 | -1 | 4 | 3 | -1.3
O=S(=O)(Cc1ccccc1)N1CCCCC1 | -0.3 | -17 | / | / | / | / | 9 | -3 | -4 | 2.2
COc1ccc2c(c1)OC[C@H]1[C@H]2N2C(=O)c3cc(Cl)ccc3NC(=O)[C@@]2(C)[C@H]1c1ccccc1 | -0.4 | 4 | -14 | / | / | / | -1 | / | / | 4.3
COc1ccc(CN2C(=O)c3ccccc3C(/C=N\OCc3ccc(F)cc3)C2=O)cc1 (configuration not stated) | -0.2 | -8 | -1 | / | / | / | 4 | 13 | 6 | 0.0
COC(=O)Nc1ccc(S(=O)(=O)Nc2cc(C(F)(F)F)c[nH]c2=O)cc1 | 1.3 | / | -7 | 4 | 1 | -2.9 | 8 | -8 | -2 | -1.0
COC(=O)Cn1ncn2cccc2c1=O | -0.2 | 4 | 19 | / | / | / | -1 | -11 | -5 | -2.2

Nothing new here: entries from further up.
SMILES | Bfl-1 A1 inh | Beta apoptosis | ALR inh | rRNA inh HTS | rRNA inh HTS OD600 | rRNA inh HTS RFP | Beta2AR agonist | T cruzi inh | Calb FLC | LANA-H2A inh
COC(=O)Nc1ccc(S(=O)(=O)Nc2cc(C(F)(F)F)c[nH]c2=O)cc1 | 1.3 | / | -7 | 4 | 1 | -2.9 | 8 | -8 | -2 | -1.0
COC(=O)Cn1ncn2cccc2c1=O | -0.2 | 4 | 19 | / | / | / | -1 | -11 | -5 | -2.2

Copied from the list:
CCc1cccc(C)c1NC(=O)COC(=O)Cn1c(C)csc1=O in LANA-H2A inh has 0.0
C(=C\c1ccco1)/c1nc2ccccc2[nH]1 in LANA-H2A inh has 2.9
COc1cccc(C(=O)NCCCNC(=O)c2cccc(OC)c2)c1 in rRNA inh HTS OD600 has -5

High-throughput results as filed in PubChem BioAssay.
